High-throughput results (PubChem)
B2AR ag – beta2AR agonists driving receptor internalization, primary screen, cell-based, FAP fluorogen, flow cytometry. Am2.2-beta2AR cells; reference of the scale not given here. AID 504454, 2011. response, % (concentration not given with the values). 0.43% of 340,000 active;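 active = response above a set limit, near 3 SD of response in nonfluorescent compounds, cut at about 42% in these data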;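 also: stock transfer was 100 nL into about 11 µL; a reference agonist was the positive control; negative values mostly stem from fluorescent compounds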
Target sequence (P07550 whole entry, looked up): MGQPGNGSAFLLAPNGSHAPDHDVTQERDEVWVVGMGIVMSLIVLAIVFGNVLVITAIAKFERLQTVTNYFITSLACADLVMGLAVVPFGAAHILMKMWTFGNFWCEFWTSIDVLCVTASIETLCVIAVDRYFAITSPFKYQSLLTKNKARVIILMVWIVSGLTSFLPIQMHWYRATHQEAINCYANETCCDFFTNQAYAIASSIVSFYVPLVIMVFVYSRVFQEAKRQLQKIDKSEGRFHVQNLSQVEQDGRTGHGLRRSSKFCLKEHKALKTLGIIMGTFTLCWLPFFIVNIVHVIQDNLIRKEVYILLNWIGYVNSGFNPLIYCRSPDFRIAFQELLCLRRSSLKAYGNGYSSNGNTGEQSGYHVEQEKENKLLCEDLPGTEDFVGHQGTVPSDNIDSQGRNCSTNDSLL
Vif TR-FRET – inhibitors of Vif binding to APOBEC3G peptide, primary screen, biochemical, TR-FRET, GST-Vif 1-94, biotin-A3G peptide, dose response retest (AID 1117319). TR-FRET GST-Vif / biotin-A3G peptide binding; higher % means a stronger effect; test concentration not given here; strong numbers were not always called active. inhibition, %; hits with a dose series show IC50 in µM. Virion infectivity factor (Human immunodeficiency virus type 1 group M subtype B (isolate …. 0.57% of 260,000 active;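 active = above the screen mean plus three standard deviations and confirmed in dose response; inconclusive = results disagree or hit not tested in dose response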;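 also: Vif residues 1-94 fused to GST binding biotinylated APOBEC3G peptide 110-148; 0% = full assay without inhibitor and 100% = GST in place of GST-Vif; retest series ran down from 100 µM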
HNF4A DNA FP – change in binding of human HNF4A to DNA, primary screen, biochemical, fluorescence polarization, FITC-DNA; activity change, % at 10 µM; 0.3% of 360,000 active; Hepatocyte nuclear factor 4-alpha (Homo sapiens), P41235; 1 h; in the data active = activity change above about 30%, passing the limit was not always enough;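 also: controls were the assay level and a saturating level of protein; the project sought stronger binding though the title names inhibitors; some compounds called inactive have numbers as strong as hits; positive values seem to mean higher polarization but the record does not say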
Target sequence (P41235 whole entry, looked up): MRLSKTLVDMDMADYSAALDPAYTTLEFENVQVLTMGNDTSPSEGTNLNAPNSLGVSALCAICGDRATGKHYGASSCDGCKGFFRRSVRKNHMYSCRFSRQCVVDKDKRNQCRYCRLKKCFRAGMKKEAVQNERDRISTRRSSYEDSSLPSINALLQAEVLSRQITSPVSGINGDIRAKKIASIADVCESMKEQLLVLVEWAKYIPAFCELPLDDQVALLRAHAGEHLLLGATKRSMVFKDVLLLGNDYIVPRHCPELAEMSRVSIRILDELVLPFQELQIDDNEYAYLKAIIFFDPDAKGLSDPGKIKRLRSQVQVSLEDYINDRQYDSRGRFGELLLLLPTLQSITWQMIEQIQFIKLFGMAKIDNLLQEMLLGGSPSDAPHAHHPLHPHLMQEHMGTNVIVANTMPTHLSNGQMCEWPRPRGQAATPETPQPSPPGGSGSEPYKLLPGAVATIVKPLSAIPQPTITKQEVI
LANA-H2A inh – blockers of LANA interaction with H2A/H2B – biochemical, FP readout, HTS, primary screen; Protein LANA1 (Human herpesvirus 8 type P (isolate GK18)), Q9QR71; cell-free LANA-H2A/H2B peptide, fluorescence polarization; inhibition, % (concentration not given with the values); 0.6% of 320,000 active; in the data active = inhibition mostly above about 10%, no sharp cut-off; inactive = mostly below about 6.7%;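 also: stock transfer was 7.5 nL into about 10 µL; 0% = median of vehicle wells and 100% = median of positive control wells; one replicate is shown; the record names a cut of 25% in any replicate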
Calb FLC – C. albicans growth inhibition with fluconazole, primary screen, CaCi-2 strain, Alamar Blue fluorescence | C. albicans CaCi-2 (fluconazole-resistant clinical isolate) + fluconazole, 48 h | growth inhibition, % (test concentration not listed) | 0.57% of 300,000 active | AID 1979, 2009;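 active = most replicates above 75%; inconclusive = exactly half above 75%; inactive = most below 75%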;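 also: all wells also contain fluconazole at 8 µg/ml as a sub-toxic cotreatment; 0% = median of DMSO wells and 100% = median of geldanamycin control wells; wells of about 8 µL received 7.5 nL stock; the first replicate is given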
RanGTP-Impb inh – inhibitors of RanGTP-importin-beta interaction, primary screen, biochemical, FRET, CFP-Ran, YFP-importin-beta, homogeneous | Ran GTPase (GTP-bound) - importin-beta complex | cell-free CFP-Ran/YFP-importin-beta FRET ratio | inhibition, % (test concentration not listed) | 1.1% of 300,000 active | AID 2216, 2009;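 active = most replicates above 15%; inconclusive = exactly half above 15%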;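 also: 0% = DMSO wells and 100% = Ran loaded with GDP instead of GTP; wells of about 40 µL received 100 nL stock; the first replicate is given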
ALR H2O2 inh – inhibitors of human ALR sulfhydryl oxidase, primary screen, biochemical, H2O2 detection, HRP-luminol luminescence, single point; 3.8% of 290,000 active; inhibition, % (no concentration beside the values); AID 485317, 2010; FAD-linked sulfhydryl oxidase ALR (Homo sapiens), P55789; purified ALR, DTT oxidation;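 active = mean and each replicate at 75% or more; inconclusive = only one of the two met; inactive = neither met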;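 also: stock transfer was 7.5 nL into about 7.5 µL; 0% = neutral wells and 100% = wells with inactivated enzyme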
Target sequence (P55789 whole entry, looked up): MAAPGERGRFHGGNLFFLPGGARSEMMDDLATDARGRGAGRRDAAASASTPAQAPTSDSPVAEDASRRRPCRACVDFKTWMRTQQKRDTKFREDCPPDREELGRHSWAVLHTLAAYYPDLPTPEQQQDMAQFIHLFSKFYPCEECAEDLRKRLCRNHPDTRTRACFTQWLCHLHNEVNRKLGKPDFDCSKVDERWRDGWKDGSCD
Active calls of the source: *; ? = inconclusive; nt = not tested or not shown; & = joins results of further samples.

smiles,B2AR ag,Vif TR-FRET,HNF4A DNA FP,LANA-H2A inh,Calb FLC,RanGTP-Impb inh,ALR H2O2 inh
OCc1ccccc1N=c1ssnc1Cl,nt,-3.0%,nt,0.7,-2.9,1.2,-3.0
O=C(N[C@@H](Cc1ccccc1)C(=O)OCc1ccccc1)c1nc[nH]c1C(=O)NC(c1ccccc1)c1ccccc1,4.8,nt,3.0,-1.2,-2.3,-1.4,0.7
CCOC(=O)Cn1c2c(c(-c3ccccc3OC)cc1=O)CCCC2,5.5,-1.8%&-0.1%,11.0,-3.1,6.6,0.9,-1.2
CCOc1ccccc1NC(=O)Cn1nnc(C(=O)Nc2ccc(C)cc2)c1N,-0.6,1.3%,-1.3,0.8,-1.3,1.7,-2.2
CNCC(=O)N1CCN(c2ncc(C(F)(F)F)cc2Cl)CC1,-8.4,1.2%,0.1,4.8,26.5,6.1,-5.4
O=C(CN1CCOCC1)N/N=C/c1ccc(C(=O)O)cc1,6.1,2.5%,2.4,0.2,5.6,0.5,nt
CCC1=C2CC[C@H]3C(=O)NC(=O)[C@H]3[C@H]2[C@@]2(Cc3ccccc3)C(=NCC(=O)OC)OC(=O)N2C1=O,-6.0,109.2%,-0.2,5.2,nt,nt,nt
O=C(N/N=C/c1ccc(F)cc1)c1ccccc1,-13.9,2.7%,2.1,-2.2,-3.1,-0.6,-4.0
Cc1cc(C)n2nc(C(=O)NCc3ccco3)cc2n1,2.1,1.9%,-1.1,-4.9,-2.1,0.6,-4.8
O=C(CC1C(=O)NCCN1Cc1ccc(-c2ccccc2)cc1)NCc1ccncc1 (centres undefined),1.0,5.6%,5.9,-1.9,1.8,-0.5,-7.8
O=C(COc1ccc2c(c1)oc(=O)c1ccccc12)NCCN1CCOCC1,-9.4,2.5%,-0.7,3.3,14.2,1.5,-2.9
CC(NC(=O)C(C)N1CCN(Cc2ccccc2)CC1)c1ccccc1 (centres undefined),13.6,nt,0.9,-2.3,0.2,2.5,-1.7
Cc1ccc(CN2CCN(/N=C/C(Br)=C\c3ccccc3)CC2)cc1,-3.9,nt,4.0,-3.9,1.4,-2.2,-1.8
COc1ccc(-c2cc(C(F)(F)F)n3nc(C(=O)N4CCOCC4)c(Cl)c3n2)cc1,-1.2,-2.6%,-2.8,2.7,15.4,-2.4,2.1
O=C(Nc1ccccn1)c1ccc(Cl)c([N+](=O)[O-])c1,-0.4,17.4%,2.4,0.9,24.7,5.6,48.2

smiles,B2AR ag,Vif TR-FRET,HNF4A DNA FP,LANA-H2A inh,Calb FLC,RanGTP-Impb inh,ALR H2O2 inh
CC[C@@H](C)C(C(=O)N1CCN(C(=O)OC(C)(C)C)CC1)n1cc(-c2cn([C@@H](C)C(=O)N3CCN(C(=O)OC(C)(C)C)CC3)nn2)nn1 (some centres undefined),1.2,5.3%,2.2,-0.2,-7.7,0.0,-17.8
CC(C)Oc1cc(O)c2c(=O)c(-c3ccc(O)cc3)coc2c1,10.6,1.8%,4.8,0.5,-1.9,5.1,38.5
Cn1cccc1C(=O)NCC(c1ccco1)N1CCCCC1 (centres undefined),1.8,1.2%,3.2,-3.2,-6.6,3.3,1.7
CC(C)(C)NC(=O)c1sccc1C(=O)O,-1.0,9.4%,-4.1,-3.7,1.6,3.8,-0.1
COC(=O)c1[nH]c2cccc(OC)c2c1NC(=O)CCN1CC(C)CC(C)C1 (centres undefined),-2.7,31.7%,-0.1,-2.7,-19.4,-2.5,-7.7
O=C(OCC(=O)N1CCc2ccccc21)[C@@H]1CC(O)CN1S(=O)(=O)c1ccc(Cl)cc1 (some centres undefined),-3.3,nt,4.4,4.1,nt,nt,-7.7
CNc1nc(C)c(C(=O)OCC(=O)OC)s1,1.0,3.3%,0.0,3.1,-7.1,0.1,nt
Clc1ccccc1/C=N/NC1=Nc2cccc3cccc1c23,-11.4,-4.0%,8.4,0.5,-15.2,-5.1,-0.7
CC1CN(C(=O)Cn2c(=O)oc3ccccc32)CC(C)O1 (centres undefined),-9.9,nt,0.6,1.1,-2.9,0.9,-12.8
O=C(CSc1n[nH]c(-c2ccncc2)n1)c1ccccc1,-5.5,-0.1%,-0.9,0.2,15.0,2.6,26.4
O=C(Cc1cccc(C(F)(F)F)c1)Nc1ccccc1N1CCCC1,-0.4,nt,3.0,-6.8,-3.6,?,30.5
CCOc1ccc(OCC(=O)N(CCC2=CCCCC2)c2c(N)n(Cc3ccccc3)c(=O)[nH]c2=O)cc1,-2.6,nt,2.0,1.5,-3.4,2.4,nt
Cc1cc(NC(=O)CCC(=O)N(Cc2ccco2)C(C(=O)NC2CCCC2)c2ccccc2C)no1 (centres undefined),-4.6,31.3%,1.2,0.9,-3.8,-0.6,0.6
Cc1ccn2c(CNCC3OCCc4ccccc43)c(C(=O)N3CCCCCC3)nc2c1 (centres undefined),-10.4,9.1%,-1.6,1.9,-1.5,4.4,-3.3
CN(C(=O)COC(=O)COc1ccc2c(c1)CCC2)c1c(N)n(Cc2ccccc2)c(=O)[nH]c1=O,0.6,7.6%,-2.1,nt,3.4,-0.5,nt

smiles,B2AR ag,Vif TR-FRET,HNF4A DNA FP,LANA-H2A inh,Calb FLC,RanGTP-Impb inh,ALR H2O2 inh
O=C(Nc1nccs1)c1cccc2ccccc12,-4.5,nt,-1.8,-2.8,23.8,-2.1,-8.4
COc1cc(NC(=O)COc2cc(C)cc3oc(=O)c(C)c(C)c23)cc(OC)c1OC,20.2,nt,3.8,-2.7,-2.9,-3.3,-4.6
COC(=O)C1CCN(C(=O)Cn2nnc(-c3cccc(F)c3)n2)CC1,-2.5,nt,4.1,-1.6,-0.2,?,3.4
O=C(NC(=S)Nc1ccccc1Br)c1cccnc1,-3.3,nt,2.2,-1.6,2.0,-0.5,0.4
COc1cccc(NC(=O)Nc2nnc(-c3ccccc3SCc3ccccc3)s2)c1,-3.2,-5.1%,1.7,-1.2,-11.7,-0.9,1.3
Cc1ccc(Nc2ncnc3c2cnn3C)c(C)c1,-3.3,-2.0%,0.7,-7.8,6.0,-2.0,-4.7
COCCCNC(=S)NNC(=O)c1cccnc1,1.5,19.4%,-2.9,-3.3,-15.0,-0.5,17.7
O=C(CC(c1ccccc1)c1ccccc1)NCC(O)c1ccc([N+](=O)[O-])cc1 (centres undefined),15.2,-18.2%,0.4,-3.1,-5.1,4.6,-2.5
O=C1CC(NS(=O)(=O)c2cc(F)ccc2F)CN1c1ccc2c(c1)OCCO2 (centres undefined),-2.0,0.2%,2.5,1.7,-0.6,-2.6,nt
N#Cc1ccccc1NC(=S)NC(=O)c1cccs1,-7.2,nt,7.1,7.6,3.5,?,98.0*
Cc1ccc(C)c(NC(=O)c2cc(-c3ccccc3O)n[nH]2)c1,-1.2,-3.4%,-0.3,-1.6,-0.9,-6.8,-18.9
COc1ccc(/C=C/C(=O)c2sc(-c3ccccc3)nc2C)cc1,0.1,-4.9%,-0.2,12.3,12.5,-4.9,33.7
COc1ccc(Nc2nc(N)nc(CSc3nc(C)cc(C)n3)n2)cc1,3.5,nt,3.2,1.4,21.2,nt,-3.5
CCN(CC)C(=O)CSC1=Nc2ccccc2C2=NC(c3ccccc3)C(=O)N12 (centres undefined),3.3,7.6%,-2.0,-2.7,1.9,-4.0,-4.4
C=C(C)CC(c1ccccc1)N(C(C)=O)c1ccco1 (centres undefined),3.1,-8.4%,-2.0,-1.6,-0.6,0.2,-0.1

Fetched by structure from above, three records:
smiles,B2AR ag,Vif TR-FRET,HNF4A DNA FP,LANA-H2A inh,Calb FLC,RanGTP-Impb inh,ALR H2O2 inh
CC[C@@H](C)C(C(=O)N1CCN(C(=O)OC(C)(C)C)CC1)n1cc(-c2cn([C@@H](C)C(=O)N3CCN(C(=O)OC(C)(C)C)CC3)nn2)nn1 (some centres undefined),1.2,5.3%,2.2,-0.2,-7.7,0.0,-17.8
COc1ccc(Nc2nc(N)nc(CSc3nc(C)cc(C)n3)n2)cc1,3.5,nt,3.2,1.4,21.2,nt,-3.5
O=C(CC1C(=O)NCCN1Cc1ccc(-c2ccccc2)cc1)NCc1ccncc1 (centres undefined),1.0,5.6%,5.9,-1.9,1.8,-0.5,-7.8

New compounds follow.
smiles,B2AR ag,Vif TR-FRET,HNF4A DNA FP,LANA-H2A inh,Calb FLC,RanGTP-Impb inh,ALR H2O2 inh
Cc1ccc(S(=O)(=O)N/N=C/c2cccc([N+](=O)[O-])c2)cc1,1.9,5.1%,-4.2,-3.9,2.2,4.3,3.4
O=C(CCC(=O)N1CCc2ccccc21)Nc1ccccc1,-7.2,-0.5%,0.7,3.0,-9.1,?,2.5
CC[C@H]1CC2CN3CCc4c([nH]c5c([C@H]6C[C@H]7[C@H](CC)CN(C)[C@@H](Cc8c6[nH]c6ccccc86)[C@H]7C(=O)OC)c(OC)ccc45)C(C(=O)OC)(C2)C13,nt,nt,nt,2.9,-10.4,-0.7,-5.5
CC(=O)[C@H]1CC[C@H]2[C@@H]3CCC4=CC(=O)CC[C@]4(C)[C@H]3[C@H](O)C[C@]12C,-4.6,-3.3%,-0.6,-6.2&5.6,nt,?,-6.4
CCN(CC(=O)Nc1ccccc1OC)C(=O)c1ccc(N(C)S(=O)(=O)c2ccc(C)cc2)cc1,6.4,1.2%,-3.8,3.0,0.2,0.4,-3.7
CCc1ccccc1NC(=O)CSc1ccsc1[N+](=O)[O-],-0.2,-55.1%,-15.2,4.1,-6.6,-4.9,17.6
Cn1cccc1C(=O)NCCc1ccc(Cl)cc1,7.0,nt,2.5,5.6,-25.6,4.1,-2.3
Cc1onc(-c2ccccc2)c1C(=O)NCC(=O)Nc1cc(Cl)ccc1Cl,4.2,nt,-0.8,-3.4,nt,nt,-6.1
COc1ccccc1CNC(=O)C(=O)NCC1OCCN1S(=O)(=O)c1cccs1 (centres undefined),8.5,22.0%,-2.9,3.8,-10.4,0.1,-3.1
Cc1ccc(C)c(N(CC(=O)NCc2ccco2)C(=O)CCC(=O)Nc2nccs2)c1,7.2,nt,-1.3,5.1,-4.2,?,1.4
Cc1cc(C)cc(NC(=O)c2oc3ccccc3c2COc2ccccc2)c1,-1.1,1.1%,-0.5,0.9,2.3,-3.1,nt
CN1CCN(c2nc(-c3ccc(Cl)s3)cs2)CC1,-2.3,nt,-2.1,-0.2,-5.8,1.3,34.3
Cc1cc(Cl)ccc1NC(=S)NCCC(c1ccccc1)c1ccccc1,-2.6,-6.5%,-4.8,-4.1,-16.5,1.6,0.3
CCOC(=O)N1CCN(C(=O)COC(=O)c2ccc(N(C)C)cc2)CC1,-1.2,nt,-2.7,-7.0,nt,nt,2.2
Clc1ccc(-c2noc(COc3ccccc3)n2)cc1,-1.3,-1.3%,-2.9,0.7,-7.9,-4.0,0.9

Single records, from the list above. Order of screens: B2AR ag	Vif TR-FRET	HNF4A DNA FP	LANA-H2A inh	Calb FLC	RanGTP-Impb inh	ALR H2O2 inh
Entry for `CN1CCN(c2nc(-c3ccc(Cl)s3)cs2)CC1` → -2.3	nt	-2.1	-0.2	-5.8	1.3	34.3
Entry for `Cc1cc(C)cc(NC(=O)c2oc3ccccc3c2COc2ccccc2)c1` → -1.1	1.1%	-0.5	0.9	2.3	-3.1	nt
Entry for `CC(=O)[C@H]1CC[C@H]2[C@@H]3CCC4=CC(=O)CC[C@]4(C)[C@H]3[C@H](O)C[C@]12C` → -4.6	-3.3%	-0.6	-6.2&5.6	nt	?	-6.4
